Screens as filed in PubChem.
DUX4 txn inh = blocks DUX4-driven transcriptional activation; 293T-iDUX4 ZSCAN4-Gaussia luciferase reporter, 24 h; hits give low values; activity change, negative = inhibition, % (test concentration not listed); actives 0.8% (n = 37,000); AID 1224904;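 active = -10% or lower and over 25 points stronger than a control reporter; inconclusive = -10% or lower with a smaller gap; inactive = above -10%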;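 note: 0% = median of neutral control wells and -100% = median of positive control wells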
DUX4 txn inh difference = further read-out of DUX4 txn inh, marked with its call; Gaussia minus Italica difference, %; measured here: selective DUX4 reporter inhibition;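 worked out from the two reporters; negative = selective loss of the DUX4 reporter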
DUX4 txn inh control = second read-out of DUX4 txn inh, no call of its own (marks repeat the call); activity change, negative = inhibition, %; measured here: Italica tet-on control reporter;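 0 = neutral control and -100 = positive control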
An asterisk follows results filed as active; ? = inconclusive; / = no result given; & = joins results of further samples.

SMILES	DUX4 txn inh	DUX4 txn inh difference	DUX4 txn inh control
O=C(C[C@@H]1CC[C@@H]2[C@H](COC[C@H](O)CN2C(=O)c2ccccc2)O1)N1CCOCC1	12	6	6.0
COc1ccccc1S(=O)(=O)N[C@H]1C=C[C@H](CC(=O)NCc2cccc(F)c2)O[C@@H]1CO	1	3	-2.0
CCS(=O)(=O)Nc1ccc2c(c1)C(=O)N(C)[C@H]1CC[C@H](CC(=O)NCc3ccc(OC)cc3)O[C@H]1CO2	-3	-2	-0.8
CCCC#Cc1ccc([C@@H]2[C@H](CO)N3C(=O)CN(C(=O)Nc4ccccc4F)C[C@@H]23)cc1	?	/	/
COc1ccccc1C#Cc1ccc([C@H]2[C@@H](C#N)N(C(=O)C3CCCCC3)[C@H]2CO)cc1	-2	1	-2.6
CO[C@@H]1CN(C)C(=O)c2cc(NS(=O)(=O)c3cccc(F)c3)ccc2OC[C@@H](C)N(Cc2cc(F)ccc2F)C[C@@H]1C	?	/	/
O=C(C[C@@H]1CC[C@@H]2[C@H](COC[C@@H](O)CN2Cc2ccncc2)O1)NCc1ccncc1	-2	-3	1.6
CO[C@@H]1CN(C)C(=O)c2ccc(NC(=O)Nc3ccccc3F)cc2OC[C@@H](C)N(C(C)=O)C[C@H]1C	-7	-6	-0.8
C[C@@H](NC(=O)C[C@H]1C[C@@H]2c3cc(NC(=O)C4CCOCC4)ccc3O[C@@H]2[C@H](CO)O1)c1ccccc1	9	5	4.4
C/C=C/c1ccc([C@@H]2[C@@H](CO)N3CCCCN(S(=O)(=O)c4cccc(C)c4)C[C@H]23)cc1	-17*	-29*	12*
OC[C@@H]1[C@H](c2ccccc2)C2(CN(CCC(F)(F)F)C2)N1Cc1nccs1	0	3	-2.7
Cc1ccccc1-c1cnc2c(c1)C(=O)N([C@@H](C)CO)C[C@@H](C)[C@@H](CN(C)CC1CCOCC1)O2	-1	-1	-0.1
Fc1ccccc1CN1[C@@H]2CNC[C@H]1C2c1ccc(-c2ccncc2)cc1 (stereo partly specified)	9	26	-16
CCCNC(=O)N1CC2(CCN(S(C)(=O)=O)CC2)c2c(n(C)c3cc(OC)ccc23)[C@H]1CO	9	18	-8.3
O=C(C[C@H]1C[C@H]2c3cc(NC(=O)NC4CCCC4)ccc3O[C@H]2[C@H](CO)O1)NCc1ccc2c(c1)OCO2	3	-2	4.4
COc1ccc2c3c([nH]c2c1)[C@@H](CO)N(C(=O)CN(C)C)CC31CN(C(=O)c2ccncc2)C1	14	11	3.1
C[C@@H]1CN([C@@H](C)CO)C(=O)c2c(c3ccccc3n2C)-c2ccccc2CO[C@@H]1CN(C)C(=O)Nc1ccnc(N2CCOCC2)c1	?	/	/
CO[C@H]1CN(C)C(=O)c2cc(NC(=O)Nc3c(C)noc3C)ccc2OC[C@@H](C)NC[C@H]1C	2	3	-0.3
COCC(=O)N1[C@H](CO)[C@@H](c2ccccc2)C12CN(C(=O)Cc1ccccn1)C2	8	6	1.2
CC=Cc1ccc2n(c1=O)C[C@@H]1[C@@H](CO)[C@H](C(=O)N3CCN(C)CC3)N(Cc3ccccc3OC)[C@H]21 (mixture of isomers)	5	1	4.4
O=C(C[C@@H]1CC[C@@H]2[C@H](COC[C@@H](O)CN2C(=O)c2cnccn2)O1)NCc1ccccc1	1	2	-0.2
Cc1noc(C)c1NC(=O)N(C)C[C@H]1Oc2ccc(NC(=O)CCCCCC(=O)Nc3ccccc3N)cc2CC(=O)N([C@H](C)CO)C[C@H]1C	7	1	5.9
Cc1noc(C)c1NC(=O)NCC[C@@H]1CC[C@@H](NC(=O)Cc2cccnc2)[C@H](CO)O1	-1	2	-3.3
CO[C@@H]1CC[C@H]2CCN(C)C(=O)C[C@H](c3ccccc3)CN(C)C(=O)c3cc(C#N)ccc3OC[C@H]1O2	2	1	1.2
CCC(=O)N1C[C@H](C)[C@H](OC)CN(C)C(=O)c2cc(NC(=O)NC3CCCC3)ccc2OC[C@H]1C	-1	-1	-0.2
C/C=C/c1ccc([C@@H]2[C@H](CO)N(S(=O)(=O)Cc3ccccc3)C23CN(C(=O)C2CCOCC2)C3)cc1	2	8	-5.3
C[C@@H]1CCCCO[C@H](CN(C)S(C)(=O)=O)[C@@H](C)CN([C@H](C)CO)C(=O)c2cc(NC(=O)NC3CCCCC3)ccc2O1	1	3	-1.7
CC=Cc1ccc2n(c1=O)C[C@@H]1[C@@H](CO)[C@H](C(=O)NCCc3cn(C)cn3)N(C(=O)CC)[C@H]21 (mixture of isomers)	-5	0	-5.0
CN(C)CC(=O)N[C@@H]1CC[C@H](CCNS(=O)(=O)c2ccccc2)O[C@H]1CO	3	2	1.5
COc1ccccc1NC(=O)N1C[C@@H](O)COC[C@@H]2O[C@@H](CC(=O)NCCc3ccccc3)CC[C@H]21	5	7	-2.5
O=C(C[C@H]1C=C[C@@H](NC(=O)Cc2ccccn2)[C@H](CO)O1)NCCc1ccncc1	3	1	1.8
O=C(NC1Cc2ccccc2C1)[C@@H]1N[C@@H]2c3cccc(=O)n3C[C@@H]2[C@H]1CO	2	8	-6.2
O=C(c1ccccc1F)N1CC[C@@H]2[C@H](CO)Nc3ccc(-c4cccc(F)c4)cc3[C@@H]21	?	/	/
C[C@H](C(=O)N(C)C[C@H]1OCc2ccccc2-c2c(n(C)c3ccccc23)C(=O)N([C@H](C)CO)C[C@H]1C)c1ccccc1	?	/	/
O=C(C[C@H]1CC[C@@H]2[C@H](COC[C@@H](O)CN2C(=O)Nc2cc(Cl)cc(Cl)c2)O1)N1CCCCC1	1	0	1.3
C[C@H]1CN([C@@H](C)CO)C(=O)c2cccc(NC(=O)c3ccncc3)c2O[C@@H]1CN(C)S(=O)(=O)c1ccccc1	3	-3	6.3

2 records drawn at random from those above, as already listed:
SMILES	DUX4 txn inh	DUX4 txn inh difference	DUX4 txn inh control
CCS(=O)(=O)Nc1ccc2c(c1)C(=O)N(C)[C@H]1CC[C@H](CC(=O)NCc3ccc(OC)cc3)O[C@H]1CO2	-3	-2	-0.8
OC[C@@H]1[C@H](c2ccccc2)C2(CN(CCC(F)(F)F)C2)N1Cc1nccs1	0	3	-2.7

4 compounds already listed, ordered by length of the SMILES, low to high.
SMILES	DUX4 txn inh	DUX4 txn inh difference	DUX4 txn inh control
O=C(C[C@H]1C=C[C@@H](NC(=O)Cc2ccccn2)[C@H](CO)O1)NCCc1ccncc1	3	1	1.8
O=C(NC1Cc2ccccc2C1)[C@@H]1N[C@@H]2c3cccc(=O)n3C[C@@H]2[C@H]1CO	2	8	-6.2
CCC(=O)N1C[C@H](C)[C@H](OC)CN(C)C(=O)c2cc(NC(=O)NC3CCCC3)ccc2OC[C@H]1C	-1	-1	-0.2
C/C=C/c1ccc([C@@H]2[C@H](CO)N(S(=O)(=O)Cc3ccccc3)C23CN(C(=O)C2CCOCC2)C3)cc1	2	8	-5.3

(more compounds)
SMILES	DUX4 txn inh	DUX4 txn inh difference	DUX4 txn inh control
O=S(=O)(c1ccccc1)N1[C@@H](CO)[C@@H]2c3ccccc3NC[C@@H]21	4	2	2.6
C/C=C/c1ccc([C@@H]2[C@H](C#N)N(c3ncc(CC)s3)[C@H]2CO)cc1	1	3	-2.3
CN1CCN(C(=O)[C@H]2[C@H](CO)[C@H]3Cn4c(ccc(-c5cccnc5)c4=O)[C@H]3N2CC2CC2)CC1	-3	-1	-2.8
COCC(=O)N1C[C@H]2[C@@H](c3ccccc31)[C@H](CO)N2C(=O)Nc1ccccc1F	-4	-3	-1.2
C[C@@H]1CN([C@H](C)CO)S(=O)(=O)c2ccc(-c3cncnc3)cc2O[C@@H]1CN(C)C(=O)Cc1ccncc1	3	1	1.3
C[C@@H]1CN([C@@H](C)CO)C(=O)c2cc(NC(=O)CCN3CCOCC3)ccc2O[C@H]1CN(C)S(=O)(=O)c1cccs1	-1	-2	1.6
O=C(C[C@H]1C=C[C@@H](NC(=O)Cc2cccnc2)[C@@H](CO)O1)NCc1ccc2c(c1)OCO2	1	5	-4.8
CCC(=O)N1[C@H](C#N)[C@H](c2ccccc2-c2cccc(C)c2)[C@@H]1CO	2	-6	8.1
CC(C)CC#Cc1ccc([C@@H]2[C@@H](CO)N3C(=O)CN(C(=O)Cc4ccccc4)C[C@@H]23)cc1	-10	0	-9.8
CCC(=O)N1CC2(C1)CN(S(=O)(=O)c1ccccc1)[C@@H](CO)c1[nH]c3cc(OC)ccc3c12	9	13	-3.8
CN1C(=O)c2cc(NC(=O)c3cccc(F)c3)ccc2OC[C@@H]2O[C@@H](CC(=O)NC3CCC3)CC[C@@H]21	-3&-2	-5&0	1.9&-1.5
C[C@H](CO)N1C[C@H](C)[C@@H](CN(C)Cc2ccc(Oc3ccccc3)cc2)Oc2ccc(NC(=O)c3ccncc3)cc2C1=O	-4	1	-4.9
O=C(Nc1ccc(F)cc1)N1CCCCN2[C@H](CO)[C@@H](c3ccc(C#Cc4ccccc4)cc3)[C@@H]2C1	?	/	/
C[C@@H]1CN([C@H](C)CO)S(=O)(=O)c2ccc(/C=C/c3ccccc3)cc2O[C@@H]1CN(C)C(=O)c1ccc2c(c1)OCO2	3	2	1.0
CNC(=O)C[C@@H]1CC[C@@H]2[C@H](COC[C@@H](O)CN2Cc2ccccc2F)O1	9	5	3.2
CN(C)CCCNC(=O)[C@H]1[C@H](CO)[C@H]2Cn3c(ccc(C4=CCCC4)c3=O)[C@@H]1N2Cc1cocn1	5	-1	5.6
C[C@@H](NC(=O)C[C@@H]1CC[C@H]2[C@H](COc3ccc(NC(=O)C4CCOCC4)cc3C(=O)N2C)O1)c1ccccc1	-2	-5	3.1
COc1ccc(CN(C)C[C@@H]2OCc3cnnn3CCCC(=O)N([C@@H](C)CO)C[C@@H]2C)cc1	-2	-2	-0.7
CCCC(=O)N1CCC2(CC1)CN(C(=O)CN1CCOCC1)[C@H](CO)c1c2c2ccc(OC)cc2n1C	10	7	3.7
CC(=O)Nc1ccc2c(c1)C(=O)N(C)[C@H]1CC[C@H](CC(=O)Nc3ccccc3Cl)O[C@@H]1CO2	1	0	0.1
C[C@@H]1CN([C@@H](C)CO)C(=O)c2cc(NC(=O)C3CCCCC3)ccc2O[C@@H](C)CCCCO[C@@H]1CN(C)CC1CCCCC1	-1	-5	3.5
O=C(NC1CCCC1)N1CC2(C1)[C@H](c1ccccc1)[C@@H](CO)N2CC1CCOCC1	11	6	5.0
O=C(C[C@@H]1CC[C@@H]2[C@H](COC[C@H](O)CN2C(=O)c2ccccc2F)O1)N1CCOCC1	12	4	8.2
CC(C)OC(=O)N(C)C[C@@H]1OCc2cnnn2CCCC(=O)N([C@@H](C)CO)C[C@H]1C	4	7	-2.6

Brought forward from above: 2 compounds; new compounds follow.
SMILES	DUX4 txn inh	DUX4 txn inh difference	DUX4 txn inh control
O=C(C[C@@H]1CC[C@@H]2[C@H](COC[C@H](O)CN2C(=O)c2ccccc2F)O1)N1CCOCC1	12	4	8.2
CC(C)OC(=O)N(C)C[C@@H]1OCc2cnnn2CCCC(=O)N([C@@H](C)CO)C[C@H]1C	4	7	-2.6
CO[C@H]1CN(C)C(=O)c2ccc(NS(C)(=O)=O)cc2OC[C@@H](C)N(Cc2ccccn2)C[C@H]1C	5	3	2.0
COc1ccc2c3c([nH]c2c1)[C@H](CO)N(C(=O)C1CCCCC1)CC31CN(C(=O)c2ccncc2)C1	-1	1	-1.5
COc1ccccc1CNC(=O)C[C@@H]1C[C@@H]2c3cc(NC(=O)Nc4ccccc4F)ccc3O[C@@H]2[C@H](CO)O1	4	2	1.8
C[C@@H]1CCCCO[C@H](CN(C)C(=O)CCCN(C)C)[C@@H](C)CN([C@H](C)CO)C(=O)c2cc(NS(=O)(=O)c3ccc(Cl)cc3)ccc2O1	2	2	0.8
O=C(C[C@@H]1CC[C@H]2NC[C@H](O)COC[C@@H]2O1)Nc1ccccc1	10	3	7.0
CN(C)CC(=O)N1CC2(C1)[C@H](c1ccccc1)[C@H](CO)N2Cc1cc(F)ccc1F	-2	5	-7.6
O=C(N[C@H]1C=C[C@H](CC(=O)N2CCOCC2)O[C@@H]1CO)c1ccccn1	3	-2	5.1
C[C@@H]1CN([C@@H](C)CO)C(=O)c2cccc(NS(=O)(=O)c3ccccc3)c2O[C@@H]1CN(C)Cc1ccc(C(=O)O)cc1	8	4	4.3
COc1cccc(C(=O)N2C[C@H]3[C@@H](c4ccccc42)[C@H](CO)N3Cc2ccccc2Cl)c1	-2	3	-4.9
N#C[C@@H]1[C@@H](c2ccc(C3=CCCCC3)cc2)[C@H](CO)N1C(=O)NC1CCCC1	-2	-4	1.4
O=C(c1cccc(F)c1)N1C[C@@H]2[C@H](c3ccccc31)[C@@H](CO)N2C(=O)c1ccc(F)cc1	-1	-3	1.7
O=C(C[C@@H]1CC[C@H]2[C@@H](COC[C@@H](O)CN2C(=O)c2ccccc2)O1)NCc1ccc(-c2ccccc2)cc1	?	/	/
CO[C@@H]1CC[C@@H]2CCOc3ccc(C#N)cc3C(=O)N(C)C[C@@H](c3ccccc3)CC(=O)N(C)C[C@@H]1O2	-2	0	-1.5
CN1C(=O)c2cc(NC(=O)c3cccc(F)c3)ccc2OC[C@H]2O[C@H](CC(=O)NC3CCC3)CC[C@H]21	-2&2	-4&-5	2.3&6.5
COC(=O)[C@H]1[C@H](CO)[C@H]2Cn3c(ccc(/C=C/c4ccccc4)c3=O)[C@H]2N1CCC(F)(F)F	0	0	-0.6
CCCN1[C@H](CO)[C@H](c2ccc(C3=CCCCC3)cc2)[C@@H]1CNC(=O)COC	2	4	-1.3
C[C@@H]1CN([C@@H](C)CO)C(=O)c2c(c3ccccc3n2C)-c2ccccc2CO[C@H]1CN(C)C(=O)NC1CCCCC1	0	7	-7.0
CO[C@H]1CN(C)C(=O)c2cc(NS(=O)(=O)c3ccc(Oc4ccccc4)cc3)ccc2OC[C@@H](C)NC[C@@H]1C	-2	-1	-1.5

A portion of the library (hit frequency here may not be typical).
